26S disassembly – inhibitors of ATP-driven 26S proteasome dissociation, primary screen, biochemical, bead-based flow cytometry, GFP-tagged proteasome | anti-FLAG beads, GFP-proteasome disassembly | inhibition of disassembly, % (concentration not given with the values) | 0.2% of 24,000 active | AID 751, 2007;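 active = above 40%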;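 also: plate controls were ATP control with full disassembly for no effect and ATP-gamma-S intact proteasomes for full effect; higher percent means more bead fluorescence retained so stronger block of disassembly; stock transfer was 100 nL into about 10 µL; wells with too few beads may also be inconclusive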
VCAM-1 up – enhancers of VCAM-1 display on endothelial cells, cell-based, plate reader, pooled HUVEC, TNFa stimulus (AID 455); HUVEC TNFa-induced VCAM-1 immunofluorescence, plate reader; numbers were filed only for top-ranked candidate wells; augmentation, % at 5 µM; 0.2% of 10,000 active;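 active = a compound raising TNF-alpha-driven VCAM-1 surface staining, with its hit status upheld on visual or statistical review; inactive = the rest, including hits rejected on review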;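 also: 0% = TNFa with vehicle and 100% = strongest image-checked hit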
Numbers without * were called inactive; i = inactive; . = no result given. This is a subset; the hit share may differ from the screen's.

SMILES | 26S disassembly | VCAM-1 up
COC(=O)c1ccc(C2c3c(oc4cc(C)c(C)cc4c3=O)C(=O)N2CCCN(C)C)cc1 (stereo unspecified) | 0.6 | .
CN1CCN(CCCNC(=O)c2ccc(CSCc3cccc(Cl)c3)o2)CC1 | -1.0 | .
Cc1cc(C(F)(F)F)n2ncc(C(=O)O)c2n1 | 1.4 | .
COc1ccc2c(c1)Sc1ccccc1N2CCN(C)C | 0.5 | i
COc1ccc(C)cc1NCc1cccc(OC)c1OC | -1.4 | i
Cc1ccc(-c2nc(NC(=O)CSc3nnc4scc(-c5ccccc5)n34)ns2)cc1 | 0.0 | .
Clc1ccc(OCc2nnc3n2N=C(c2ccc4c(c2)OCCO4)CS3)c(Cl)c1 | 2.1 | .
CC1(C)Oc2ccc3ccc(=O)oc3c2-c2cnoc21 | -1.0 | .
Cn1c(=O)c2c(nc(SCCCO)n2Cc2ccccc2Cl)n(C)c1=O | 0.2 | i
CCOC(=O)c1sc(C)nc1C1CCN(C(=O)OCC)CC1 | 0.3 | .
Cc1ccc(C)c(N2CCN(c3cc(C)nc4nnnn34)CC2)c1 | 0.1 | .
Cc1cc(C)n(C(=O)C2CCCN2S(=O)(=O)c2ccc(Cl)cc2)n1 (stereo unspecified) | -1.0 | .
CCCS(=O)(=O)N1CCC(C(=O)NCCCOC)CC1 | -0.1 | .
CCN1C(=O)c2cccc3c(S(=O)(=O)NCCCN4CCOCC4)ccc1c23 | 2.9 | .
CCN1CCN(c2nc3c(c(=O)n(C)c(=O)n3C)n2Cc2cccc3ccccc23)CC1 | 0.7 | i
COc1cccc(C2N(c3cccc(Cl)c3)C(=O)C3CCCN32)c1OC (stereo unspecified) | 0.8 | .
CC(=O)N1CCN(Cc2ccc(Br)s2)CC1 | -1.1 | i
Cc1ccc(C)c(N(C)C(=O)COc2cc(=O)n(C)c3ccccc23)c1 | 2.4 | .
COc1ccccc1N1CCN(c2nc3ccccc3nc2C(C#N)C(=O)OC(C)C)CC1 (stereo unspecified) | 0.2 | i
CCc1ccc(Cn2nnc(C(=O)Nc3ccc(OC)cc3OC)c2N)cc1 | -0.5 | .
O=C(CCCCn1c(=S)[nH]c2ccsc2c1=O)NCc1ccco1 | -2.0 | .
COCCn1c(SCC(=O)Nc2ccc3c(c2)OCCO3)nnc1-c1c[nH]c2ccccc12 | 1.9 | .
COc1ccccc1Nc1ncc(C(=O)N2CCC(C(N)=O)CC2)c2ccccc12 | -0.8 | .
O=C(CCCCC(=O)NCc1cccs1)NCc1cccs1 | -0.3 | i
Cc1ccc(NC(=O)c2ccc(NS(=O)(=O)c3c(C)noc3C)cc2)cc1C | -0.3 | i

Fetched by compound from the list above (6):
SMILES | 26S disassembly | VCAM-1 up
Cc1ccc(-c2nc(NC(=O)CSc3nnc4scc(-c5ccccc5)n34)ns2)cc1 | 0.0 | .
COC(=O)c1ccc(C2c3c(oc4cc(C)c(C)cc4c3=O)C(=O)N2CCCN(C)C)cc1 (stereo unspecified) | 0.6 | .
COc1ccc2c(c1)Sc1ccccc1N2CCN(C)C | 0.5 | i
CCCS(=O)(=O)N1CCC(C(=O)NCCCOC)CC1 | -0.1 | .
Cc1ccc(C)c(N2CCN(c3cc(C)nc4nnnn34)CC2)c1 | 0.1 | .
Cc1ccc(NC(=O)c2ccc(NS(=O)(=O)c3c(C)noc3C)cc2)cc1C | -0.3 | i

Continuation.
SMILES | 26S disassembly | VCAM-1 up
Cc1ccc(C(c2sc3nc(C)nn3c2O)N2CCN(c3ccccc3F)CC2)cc1 (stereo unspecified) | -1.7 | .
CCCSc1ccc2nc(NC(=O)OC)[nH]c2c1 | -0.1 | i
COc1ccc(-n2c(Cc3cccn3C)nnc2SCC(N)=O)cc1 | 2.7 | i
COc1ccc(Nc2cc(C)nc3nc(C)nn23)c(OC)c1 | -3.1 | .
CC(=O)Oc1cccc(/C=c2\sc3nc(-c4ccco4)nn3c2=O)c1 | 2.3 | i
CSc1ccc(NC(=O)N2CC(C)OC(C)C2)cc1 (stereo unspecified) | 0.9 | .
COc1ccc(C(CCc2ccc(C)o2)NC(=O)Nc2ccc(OC)cc2OC)cc1 (stereo unspecified) | -0.2 | .
CC1(C)CC(=O)c2cnc(NC(=O)CCc3ccccc3)nc2C1 | -0.6 | i
COc1cccc(N2CCN(C(=O)c3ccc4nc(N5CCCCC5)sc4c3)CC2)c1 | -0.5 | .
O=C(CSc1nc2c(cnn2-c2ccccc2)c(=O)[nH]1)N1CCOCC1 | 0.1 | .
CC(C)NC(=O)c1n[nH]c(=O)c2ccccc12 | -1.0 | .
Cc1ccccc1C(=O)NC1CCN(CC(=O)Nc2nccs2)CC1 | -1.0 | i
CCN(CC)c1ccc(NS(=O)(=O)c2ccc3c(c2)oc(=O)n3C)c(C)c1 | -1.6 | .
Cc1ccc(CCN2C(=O)CCC2(C)C(=O)NC2CCCC2)cc1 (stereo unspecified) | -1.4 | .
COc1cccc(-c2nc(CS(=O)(=O)CC(=O)Nc3cccc(C)c3C)c(C)o2)c1 | 0.4 | .
CC(C)N(C=O)C1(C(=O)NC2CCCCC2)CCCCC1 | -0.8 | i
ON=C1/C(=N\O)CC2(C/C1=N/O)OCCO2 | -0.2 | i
CC1=C(C(=O)OC(C)C)C(c2cccs2)n2ncnc2N1 (stereo unspecified) | 1.1 | .
c1ccc2c(c1)CCN(c1nc3cc4c(cc3s1)OCCO4)C2 | -0.9 | .
Cc1ccc(CNC(=O)CCCOc2cc(=O)n(C)c3ccccc23)o1 | -0.5 | .
CCOC(=O)Cc1nn2c(=O)cc(C)nc2s1 | 0.0 | i
CNc1nnc(-c2cccc(N(C)C)c2)s1 | 0.2 | i
COc1cccc(/C=N/n2cnnc2)c1OCc1ccccc1 | -2.4 | i
CCOC(=O)c1cc2sc(C)cc2n1C(C)C(=O)OCC (stereo unspecified) | -0.5 | i
O=C(CCN1CCN(C(=O)c2ccco2)CC1)Nc1ccc(F)cc1 | -0.3 | i
SMILES | 26S disassembly | VCAM-1 up
O=C(CN1C(=O)c2cccc3cccc1c23)N1CCN(c2ccccc2)CC1 | -1.7 | i
O=C(C1CCC(CNc2nc(=S)[nH]c3ccccc23)CC1)N1CCN(c2ccccn2)CC1 (stereo unspecified) | 7.9 | .
COc1ccccc1C(=O)NC(C)c1nc2ccccc2[nH]1 (stereo unspecified) | -0.6 | .
CCCCS(=O)(=O)NC1=NCN(CCO)CN1 | 0.6 | .
O=C(CSc1nnc(Cc2cc(=O)[nH]c(=O)[nH]2)n1-c1ccccc1)N1CCCc2ccccc21 | -1.7 | .
COc1ccc(OC)c2[nH]c(=O)c(CCNC(=O)C3CCCCC3)cc12 | 0.5 | .
O=C(NC1CCCC1)C1CC(=O)N(C2CCCCCCC2)C1 (stereo unspecified) | -1.5 | .
N#CCCn1cnc2ccccc21 | 1.5 | i
CCOC(=O)N1CCN(C(=O)Cn2nc(-c3ccc(Cl)cc3)ccc2=O)CC1 | 1.0 | .
O=C(NCN1CCN(c2ccccc2F)CC1)c1ccccc1 | -0.7 | .
O=C(c1cnn2c1NC(c1ccco1)CC2C(F)(F)F)N1CCN(c2cccc(Cl)c2)CC1 (stereo unspecified) | 4.0 | i
O=C(CCN1C(=O)C2C3C=CC(C3)C2C1=O)N1CC(=O)N(CCc2ccccc2)C(=O)C1 (stereo unspecified) | -0.2 | .
COc1ccccc1NC(=O)CN1CCN(c2ccccc2F)CC1 | -0.7 | .
Cc1ccccc1-c1nc(CS(=O)(=O)CC(=O)N2CCc3ccccc32)c(C)o1 | -0.2 | .
CCCCN(C)c1nc(-c2ccco2)c2c(c1C#N)CC(C)(C)OC2 | 2.1 | .
Cc1nc2scc(-c3cccs3)c2c(=O)n1-n1cccc1 | -1.7 | i
c1coc(-c2nnc(NC3=NCCC3)o2)c1 | -2.5 | i
Cc1nc2sccn2c(=O)c1CCN1CCC(=C(c2ccc(F)cc2)c2ccc(F)cc2)CC1 | -0.3 | i
O=C(Cn1ncn2c(cc3ccccc32)c1=O)NCc1ccco1 | -0.5 | .
COc1ccc(S(=O)(=O)Cc2ccc(C(=O)NCCc3ccc(S(N)(=O)=O)cc3)o2)cc1 | 0.0 | i
COc1ccc(Br)cc1CNC(=O)C1CCN(S(=O)(=O)N2CCCCC2)CC1 | 0.1 | .
CSC1=NCCN1C(=O)c1c(-c2ccccc2Cl)noc1C | -1.0 | .
COCCNC(=O)Cn1cc2c(n1)CCC(C)C2 (stereo unspecified) | 0.1 | .
N#Cc1ccccc1NC(=O)COC(=O)CSc1nc2ccccc2o1 | -0.2 | .
CC(C)(C)NC(=O)Cn1c(=O)oc2cc(S(=O)(=O)N3CCc4ccccc43)ccc21 | 0.2 | .
SMILES | 26S disassembly | VCAM-1 up
Cc1nn(CC(=O)O)c2ccccc12 | 3.1 | .
CC(CCc1ccccc1)NC(=O)C1CCCN(c2nnc(-n3cccc3)s2)C1 (stereo unspecified) | 2.5 | i
COCCN(CCOC)S(=O)(=O)c1ccc(C(=O)Nc2nnc(C3CC3)o2)cc1 | 0.1 | i
CCCCc1nccn1CCn1ccnc1CCCC | 0.2 | i
CSCCC(NC(=O)c1ccco1)C(=O)O (stereo unspecified) | -0.9 | 19
Cn1c(C(=O)Nc2ccc3c(c2)OCCO3)cc2c(=O)n(C)c3ccccc3c21 | 0.3 | .
Cn1c(SCC(=O)Nc2ccc3c(c2)OCO3)nnc1-c1cnccn1 | 0.3 | i
COc1ccc(NC(=O)CN2CCN(c3ccc(F)cc3)CC2)cc1Cl | 0.8 | .
Cc1c(NC(=O)NC(C)N2C(=O)C3C4C=CC(C4)C3C2=O)c(=O)n(-c2ccccc2)n1C (stereo unspecified) | 0.9 | .
Cc1nc2sc(C(c3ccco3)N3CCOCC3)c(O)n2n1 (stereo unspecified) | 0.1 | .
O=C(c1ccccc1F)N1CCN(S(=O)(=O)c2ccc3c(c2)OCCO3)CC1 | -0.8 | .
CCn1c(SCC(=O)Nc2ccc3c(c2)OCO3)nnc1-c1ccccc1O | 1.4 | i
CCCCOc1ccc(NC(=O)Cn2c(=O)ccc3c(C)cc(C)nc32)cc1 | 0.1 | i
CCOC(=O)C1CCN(c2c(NCCN3CCCCC3C)c(=O)c2=O)CC1 (stereo unspecified) | -1.5 | .
Nc1c(C(=O)NCc2ccco2)nnn1-c1ccccc1 | 0.3 | .
COc1ccc(-c2cc(C(F)F)n3ncc(C(=O)N4CCN(C(=O)c5ccco5)CC4)c3n2)cc1 | -1.2 | .
COc1ccccc1NC(=O)CN1CCN(C2c3ccccc3-c3ccccc32)CC1 | 0.0 | .
Cc1nnc(NC(=O)C2CCCO2)s1 (stereo unspecified) | 2.0 | i
Cn1ccnc1C(O)c1ccco1 (stereo unspecified) | 2.0 | i
CS(=O)(=O)NCc1ccc(C(=O)NCc2ccccc2)cc1 | -1.2 | i
COC(=O)CN1CCN(C(=O)c2ccc(F)cc2)c2ccccc2C1 | -1.3 | .
CCCOc1ccccc1NC(=O)c1c(-c2ccccc2)noc1C | 0.2 | i
C/C(O)=C(/N=O)C(=O)Nc1ccccc1 | 0.3 | .
Cc1ccc2c(c1)N(CCC(=O)NCc1ccco1)C(=O)CO2 | -0.5 | .
O=C(CCc1nc(-c2ccccc2F)no1)NCCN1CCOCC1 | 1.3 | .

Five entries from above in a different format:
Below each compound: 26S disassembly, VCAM-1 up
> O=C(CSc1nc2c(cnn2-c2ccccc2)c(=O)[nH]1)N1CCOCC1
 : 0.1, .
> CC(C)NC(=O)c1n[nH]c(=O)c2ccccc12
 : -1.0, .
> Cc1ccccc1C(=O)NC1CCN(CC(=O)Nc2nccs2)CC1
 : -1.0, i
> CCN(CC)c1ccc(NS(=O)(=O)c2ccc3c(c2)oc(=O)n3C)c(C)c1
 : -1.6, .
> Cc1ccc(CCN2C(=O)CCC2(C)C(=O)NC2CCCC2)cc1 (stereo unspecified)
 : -1.4, .

More records
SMILES | 26S disassembly | VCAM-1 up
Cc1cc(C)n(Cc2ccc(C(=O)NCc3ccco3)o2)n1 | -0.5 | .
CCc1cc(=O)oc2cc3oc(C)c(C)c3cc12 | -0.7 | .
c1ccc(-c2csc3nnc(SCc4ccc5c(c4)OCO5)n23)cc1 | 0.2 | .
CC1CCc2nn(CC(=O)N3CCCCCC3)cc2C1 (stereo unspecified) | -1.2 | .
C=CCSc1nnc2n(-c3ccccc3OC)c(=O)c3c4c(sc3n12)CCC4 | 0.3 | i
COCCn1c(=O)[nH]c2cc(C(=O)NCCN3CCN(c4ccccc4)CC3)ccc2c1=O | 1.5 | .
CCCC(=O)NC(Nc1ccc(S(=O)(=O)Nc2ncccn2)cc1)(C(=O)OCC)C(F)(F)F (stereo unspecified) | -0.3 | .
COc1cccc(-c2cc(C(=O)NCCN3CCOCC3)no2)c1 | -1.6 | .
COc1ccc(Br)cc1C(=O)Nc1nnn(C)n1 | 0.6 | i
O=CNCC(=O)NCCc1ccc(Cl)cc1 | -8.7 | .
CCSc1nnc(NC(=O)C2CCCCC2C(=O)OCC(F)(F)C(F)F)s1 (stereo unspecified) | -1.9 | .
O=C(NCc1cccs1)C1CCCN(S(=O)(=O)c2cccc3cccnc23)C1 (stereo unspecified) | -5.5 | .
CC(=O)OCC(=O)[C@@]1(O)CC[C@H]2[C@@H]3CCC4=CC(=O)C=C[C@]4(C)[C@H]3[C@@H](O)C[C@@]21C | -0.5 | i
CCOC(=O)c1cn(CC(=O)Nc2ccccc2C(=O)OCC)nn1 | -0.7 | .
COc1ccc(N2CCN(C(=O)c3cn(C)c(=O)c4c3c3ccccc3n4C)CC2)cc1 | 0.7 | .
O=C1N(CCCCN2C(=O)C3(OCCO3)c3ccccc32)c2ccccc2C12OCCO2 | 0.6 | i
O=C(CSc1nccn1Cc1ccccc1)Nc1nccs1 | 0.8 | i
COC(=O)C1(S(=O)(=O)c2cc(Br)cc3c2N(C(C)=O)CC3)CC1 | -1.8 | .
CCCc1c(C(=O)OCC)[nH]c2c1C(=O)CCC2 | -0.1 | .
CSCCC(NS(=O)(=O)c1cccs1)C(=O)NCc1cccs1 (stereo unspecified) | 0.4 | .
